Compound activity from PubChem.
gsp agonist = qHTS for Agonist of gsp, the Etiologic Mutation Responsible for Fibrous Dysplasia/McCune-Albright Syndrome: qHTS | gsp mutant cells, cAMP HTRF, 30 min; control for the full effect not named in the record | Potency, µM (series often up to 76.9 µM), inactives show at the highest dose activation (cAMP increase), usual class: activators | 340,000 tested, 0.13% active | AID 624287, 2012; active = well fitted activation curve with a large enough effect; inconclusive = small, poorly fitted or top-dose-only effect, or another doubt; inactive = no such curve, though single readings can be large or run the other way; cell line not stated here;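 note: phosphodiesterase inhibitor Ro 20-1724 added with compounds to block cAMP breakdown; potency is the fitted concentration of half-maximal effect; nearly all actives have a fitted effect of over 60% in size; about a fifth of the inactives were tested at one dose only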
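Cells stably selected in G418 were plated at 2000/well, grown 16-24 hr, then given compounds in DMSO with the PDE inhibitor […] (300 uM solution added) for 30 min at 37C; cAMP was read by HTRF.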
gsp antagonist = qHTS for Antagonists of gsp, the Etiologic Mutation Responsible for Fibrous Dysplasia/McCune-Albright Syndrome: qHTS | gsp-mutant cells, cAMP HTRF, 30 min; control for the full effect not named in the record | Potency, µM (series often up to 76.9 µM), inactives show top-dose activity change, negative = inhibition, actives largely listed as inhibitors | 340,000 tested, 0.4% active; active = falling curve of any shape with a large fitted effect; inconclusive = falling curve, mostly with a smaller effect; inactive = flat or rising curve; cell line not stated here;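 note: intracellular cAMP measured with PDE inhibitor Ro 20-1724 present during compound exposure; potency is the fitted concentration of half-maximal effect; % is set by controls: 0 for no effect and ±100 for the full control effect; nearly all actives have a fitted effect of over 65% in size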
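HTRF cAMP read-out (cAMP-d2 plus anti-cAMP antibody-K in lysis buffer, 30 min RT). Before lysis, cells are exposed to compounds with […] for 30 min at 37C in DPBS containing Ca/Mg, BSA and Tween 20.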
Menin MLL FP FL = qHTS Assay for Inhibitors Targeting the Menin-MLL Interaction in MLL Related Leukemias: Competition With Fluorescein Labeled MLL-derived Peptide | FP activity change, % at 61.4 µM | Fluorescence polarization, fluorescein-MLL peptide displacement from menin | 290,000 tested, under 10 active; inconclusive = falling polarisation curve, or a change in total fluorescence; inactive = total fluorescence flat and polarisation flat or rising; no compound was filed as active; the % refers to the polarisation; negative = inhibition;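 note: % of control where 0% means no effect; inhibitors lower the polarisation; unlabelled MLL peptide was the positive control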
TRPV1 potentiator = HTS Assay for Compounds that Act as Potentiators of the Vanilloid Receptor 1; Transient receptor potential cation channel subfamily V member 1 (Homo sapiens), Q8NER1; AID 540277, 2011; 320,000 tested, 0.02% active; potentiation, % at 8.33 µM; TRPV1-expressing cells, Fluo-8 calcium influx, capsaicin EC20 potentiation; host cell line not named in the record; control for the full effect not named in the record; active means potentiation above 80%; inconclusive means 30% to 80%; inactive means below 30%; note: 0% is about no effect
Target sequence (Q8NER1 whole entry, looked up): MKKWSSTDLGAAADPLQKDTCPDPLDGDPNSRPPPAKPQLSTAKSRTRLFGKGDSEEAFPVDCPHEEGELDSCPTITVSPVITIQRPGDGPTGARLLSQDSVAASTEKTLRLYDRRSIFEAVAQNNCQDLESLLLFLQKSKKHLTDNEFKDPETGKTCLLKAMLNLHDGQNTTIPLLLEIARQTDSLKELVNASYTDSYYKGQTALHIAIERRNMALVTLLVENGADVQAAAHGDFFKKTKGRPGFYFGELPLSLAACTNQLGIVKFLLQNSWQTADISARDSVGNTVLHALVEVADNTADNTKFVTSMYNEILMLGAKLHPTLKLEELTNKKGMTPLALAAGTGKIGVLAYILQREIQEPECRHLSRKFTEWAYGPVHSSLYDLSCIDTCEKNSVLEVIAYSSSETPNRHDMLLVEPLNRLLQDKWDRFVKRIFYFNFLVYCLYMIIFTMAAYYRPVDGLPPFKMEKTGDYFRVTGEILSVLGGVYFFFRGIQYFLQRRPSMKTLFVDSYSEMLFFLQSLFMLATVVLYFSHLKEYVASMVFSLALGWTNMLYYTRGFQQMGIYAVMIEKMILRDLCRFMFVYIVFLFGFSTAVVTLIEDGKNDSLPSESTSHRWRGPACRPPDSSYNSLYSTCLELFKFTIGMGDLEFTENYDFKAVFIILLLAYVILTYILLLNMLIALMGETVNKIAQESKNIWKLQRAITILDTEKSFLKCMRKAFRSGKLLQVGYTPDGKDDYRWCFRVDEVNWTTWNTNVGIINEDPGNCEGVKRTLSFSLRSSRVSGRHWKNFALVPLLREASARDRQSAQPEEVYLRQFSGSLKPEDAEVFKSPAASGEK
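Cells expressing TRPV1 were dye-loaded with Fluo-8 and read kinetically: 10 s baseline, 3 min after compound (agonist portion), then 2 min after EC20 capsaicin (allosteric enhancer portion). Calcium-bound dye fluorescence at 480/520 nm.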
ClpP mod = qHTS Assay for Activators of ClpP; Potency, µM (top dose mostly 57.5 µM), without a hit: at the top dose activity change, negative = active; purified B. subtilis ClpP, FRET peptide cleavage, 20 min; ATP-dependent Clp protease proteolytic subunit (Bacillus subtilis (strain 168)), P80244; 340,000 tested, 1.9% active; active = well fitted falling curve with a large enough effect; inconclusive = small, poorly fitted or top-dose-only effect; inactive = no such curve, though single readings can be large or run the other way; note: potency is the fitted concentration of half-maximal effect; the source files actives as falling curves though it sought activators and does not explain the sign; nearly all actives have a fitted effect of over 65% in size; many hits overshoot -100%
Target sequence (P80244 whole entry, looked up): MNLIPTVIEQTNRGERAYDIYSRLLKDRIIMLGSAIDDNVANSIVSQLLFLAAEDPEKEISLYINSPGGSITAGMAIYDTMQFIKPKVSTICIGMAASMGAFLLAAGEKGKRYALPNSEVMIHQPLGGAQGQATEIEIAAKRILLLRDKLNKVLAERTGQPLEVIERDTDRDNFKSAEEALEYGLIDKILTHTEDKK
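FRET quenching reversal measured ClpP activation: 10 microg/mL B. subtilis ClpP at pH 8 with the FRET-FV decapeptide, read at 430 nm after 320 nm excitation. The 20-min minus 0-min signal was scaled between DMSO/no-enzyme wells and ADEP (5.8 microM final).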
TRPML1 blocker = qHTS for Inhibitors of the Human Mucolipin Transient Receptor Potential 1 (TRPML1). Mucolipin-1 (Homo sapiens), Q9GZU1. TRPML1-inducible cells, Ca2+ dye fluorescence, FDSS; hits give low values; inhibition of EC80 agonist-evoked calcium signal. activity change, negative = inhibition, % (test concentration not listed). 390,000 tested, 0.02% active; in the data active means activity change below about -50%; inconclusive means about -30% to -50%; inactive means above about -30%;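 note: stimulus is agonist 54-4 at its EC80 concentration; % is set by controls: 0 for no effect and ±100 for the full control effect; compound concentration not given in the record; the text of the record puts the active cut at -80%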
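Calcium fluorescence in TRPML1-DL cells induced overnight with Tet: a 110 s read after compound pin addition, then a 110 s antagonist read after challenge with 54-4 at 4 uM final (EC80).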
Sfp inh = qHTS Assay for Inhibitors of Bacillus subtilis Sfp phosphopantetheinyl transferase (PPTase); 310,000 tested, 3.5% active; AID 1490, 2009; 4'-phosphopantetheinyl transferase ffp (Bacillus subtilis), Q9F4F7; Potency, µM, without a hit: max response, negative = inhibition, most hits filed as inhibitors; Biochemical Sfp PPTase activity, qHTS; active = well fitted inhibition curve with a large enough effect; inconclusive = small, poorly fitted or top-dose-only effect, or another doubt; inactive = no such curve, though single readings can be large or run the other way;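 note: the enzyme is Sfp with the accession as filed and its product quenches rhodamine fluorescence; potency is the fitted concentration of half-maximal effect; 0% = enzyme reaction without inhibitor and -100% = no enzyme wells; top concentration of the series not given in the record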
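Step 1, compound plus 15 nM Sfp-PPTase, 15 min, room temperature. Step 2, add rhodamine-CoA (5 uM) and BHQ-2-YbbR (12.5 uM). Step 3, read 525/598 nm fluorescence at 0 and 30 min.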
* = called active by the depositor; ? = inconclusive; . = not tested or not shown; & = joins results of further samples; [ ] = remark or other dose.

Molecule | gsp agonist | gsp antagonist | Menin MLL FP FL | TRPV1 potentiator | ClpP mod | TRPML1 blocker | Sfp inh
Cc1cc(C(=O)Nc2sc3c(c2C#N)CCC(C)C3)cs1 (configuration not stated) | 3% | 9% | 8.9 | 1 | 25µM* | 7 | 5%
O=C(CNC(=O)c1ccco1)NCC(=O)OCc1ccccc1Cl | 3% | 8% | -0.4 | -3 | . | 3 | 17%
COc1cccc(/C=N/NC(=O)CC(C)O)c1OC/C=C/c1ccccc1 (configuration not stated) | -34%[inhibitor] | 6% | -2.3 | 17 | -24% | 6 | 9%
O=C(Nc1ccc(OC(F)F)cc1)c1cc[n+]([O-])cc1 | -4%[15.4 µM] | 3% | 5.6 | 11 | . | 11 | 22%
CN(C(=O)Cc1ccccc1OC(=O)c1ccccc1)c1ccccc1I | . | . | -1.6 | . | . | -14 | -15%
COc1ccc(CCCc2nc3ccccc3[nH]2)cc1 | -1%[15.4 µM] | 6% | -3.5 | 10 | . | -17 | 5%
CN1CCN(c2nc3c(c(=O)[nH]c(=O)n3C)n2Cc2cccc(Br)c2)CC1 | 9% | -4% | 4.2 | 0 | 1.1% | 4 | 9%
Nc1nnc(-c2ccco2)s1 | 13% | 5% | 0.9 | 0 | -5.5% | -9 | 5µM*
CC1(C)CC(=O)C(=Cc2cn(-c3ccccc3)nc2-c2ccccc2)C(=O)C1 | -38% | -12% | . | . | 0.5% | 2 | .
COc1cc(-c2nnc(SC/C=C/c3ccccc3)n2N)cc(OC)c1OC | 7% | -19% | 0.7 | -22 | 1.6% | 14 | 11%
CCOC(=O)c1csc(COc2ccc(OC)cc2)n1 | -6%[15.4 µM] | 1% | 1.3 | -11 | . | -12 | -19%
S=C(Nc1ccccc1Cl)N(Cc1cccnc1)Cc1ccco1 | -11%[15.4 µM] | -12% | 0.6 | 3 | . | 0 | 20%
CCCS(=O)(=O)N1CCCC(C(=O)NCCCN(CC)c2cccc(C)c2)C1 (configuration not stated) | 23% | 6% | 2.2 | -21 | -0.5% | 22 | 11%
Cc1cc([N+](=O)[O-])ccc1-c1ccc(/C=N/NC(=O)Cc2ccccc2)o1 | ? | -22% | ? | ? | . | 26 | 8%
COc1ccc(/C(O)=C2/C(=O)C(=O)N(Cc3cccnc3)C2c2ccccn2)cc1 (configuration not stated) | ? | 20% | -0.3 | -6 | -1.1% | -6 | 0%
N/C(=N\N=Cc1ccc2c(c1)OCO2)NN=Cc1ccc2c(c1)OCO2 | -16% | -19% | . | . | -9.7% | -3 | .
Cc1ccc(C(=O)OCC(=O)c2ccc(S(=O)(=O)N3CCCCC3)cc2)o1 | -34%[15.4 µM] | -7% | . | -8 | -3.9% | 7 | .
COc1ccc2c(c1OC)C(=O)N1C2SC(C)(C)[C@H]1C(=O)NC1CCCC1 (some centres not stated) | . | -4% | 3.0 | 2 | -23% | . | 17%
CC(C)c1nc(C(N)=O)c2[nH]c(=O)n(-c3ccc(F)cc3)c2n1 | -13% | -6% | -0.2 | 1 | 4.7% | 8 | 5%
COc1ccccc1N1CCN(C(=O)C(=O)c2cn(CC(=O)N3CCCCCC3)c3ccccc23)CC1 | -5%[15.4 µM] | ? | . | 3 | 0.2% | 0 | -11%
Cc1cc(NC(=O)C23CCC(C)(C(=O)O2)C3(C)C)no1 (configuration not stated) | -17% | 7% | 3.6 | -11 | -0.9% | 9 | 16%
CN1CCN(NC(=O)Nc2ccc(F)cc2)CC1 | -24% | 4% | -0.5 | 1 | 2.8% | -5 | 9%
COc1ccc(/C=N/n2c(-c3ccccc3)n[nH]c2=S)cc1 | 13%[15.4 µM] | -13% | 3.4 | -5 | -1.2% | -27 | -6%
CCOC(=O)N1CCN(C(=O)c2cccn3c(=O)c4cc(Br)ccc4nc23)CC1 | 7%[15.4 µM] | -6% | -2.9 | 3 | -0.7% | -24 | 13%
Cc1cccc(CSc2nnc(CCCCCNC(=O)OC(C)(C)C)o2)c1 | 1% | -28% | 2.0 | 9 | . | -7 | -14%
NC(=O)C1CCN(C(=O)c2cc(S(=O)(=O)N3CCN(c4ccccc4)CC3)ccc2Cl)CC1 | -41% | 3% | . | . | -0.1% | 0 | .
O=C1c2ccc3c4c(ccc(c24)C(=O)N1CCCCO)C(=O)N(CCCCO)C3=O | 25% | -22% | -29 | 2 | -11% | -3 | 15%
O=C(COC(=O)c1c2c(nc3ccccc13)CCCC2)c1cccs1 | 0% | 7% | 1.9 | -7 | -6.1% | 19 | -5%
COc1ccc(NC(=O)COC(=O)c2ccc3ccccc3n2)c(OC)c1 | -28% | 3% | . | . | 5.1% | 1 | .
COc1ccc(C2C(C(=O)OCC(=O)NC(C)(C)C)CCC(=O)N2c2ccc(C)cc2)cc1OC (configuration not stated) | -25% | -7% | 1.1 | 1 | 0.7% | -18 | 4%
Fc1ccc(-c2nc3c(Cl)cc(C(F)(F)F)cn3c2Cl)cc1 | -1% | -2% | -11 | -7 | -3.2% | 1 | 7%
CC(C)(C)C1CCC(=NOC(=O)c2ccc(F)cc2)CC1 (configuration not stated) | 4%[15.4 µM] | 0% | -2.8 | 19 | . | 61 | -7%
O=Cc1cn(CCC(=O)O)nc1-c1cccc(Cl)c1 | -14%[15.4 µM] | . | -1.7 | 1 | . | 7 | 23%
C=CCn1c(-c2ccccc2)n[nH]c1=S | 0% | 7% | 6.4 | 5 | -3.7% | 12 | 5µM*
CCN1CC(CN(C)Cc2nc(-c3ccc(OC)c4ccccc34)oc2C)CC1=O (configuration not stated) | -17% | -2% | -0.7 | -9 | . | 12 | 11%
CCn1c(C)nnc1SCC(=O)Nc1cccc(C(F)(F)F)c1 | 11%[15.4 µM] | -7% | -4.6 | 8 | 0.5% | 17 | 7%
CC(NC(=O)CCSCc1ccccc1F)c1ccccc1 (configuration not stated) | -12%[15.4 µM] | -6% | -13 | 3 | 0.1%&-1.4% | -3&7 | 8%
Cc1cc(C)c(NC(=O)CN2C(=O)NC3(CCOc4ccccc43)C2=O)c(C)c1 (configuration not stated) | -8% | 7% | 0.0 | -7 | 0.2% | 5 | 3%
Cc1ccc(S(=O)(=O)N2CCOCC2)cc1C(=O)NCC1CCCO1 (configuration not stated) | -34%[inhibitor] | 13% | . | -11 | -1.5% | 10 | 12%
CCN1CCN(c2ccc(S(=O)(=O)N3CCCCC3)cc2NC(=O)COc2ccc(F)cc2Cl)CC1 | -60%[inhibitor] | -17% | . | -2 | -2.2% | 53 | ?

Sorted by heavy-atom count (highest first): five of the compounds above
Molecule | gsp agonist | gsp antagonist | Menin MLL FP FL | TRPV1 potentiator | ClpP mod | TRPML1 blocker | Sfp inh
CCOC(=O)N1CCN(C(=O)c2cccn3c(=O)c4cc(Br)ccc4nc23)CC1 | 7%[15.4 µM] | -6% | -2.9 | 3 | -0.7% | -24 | 13%
Cc1cccc(CSc2nnc(CCCCCNC(=O)OC(C)(C)C)o2)c1 | 1% | -28% | 2.0 | 9 | . | -7 | -14%
O=C(COC(=O)c1c2c(nc3ccccc13)CCCC2)c1cccs1 | 0% | 7% | 1.9 | -7 | -6.1% | 19 | -5%
COc1ccc(/C=N/n2c(-c3ccccc3)n[nH]c2=S)cc1 | 13%[15.4 µM] | -13% | 3.4 | -5 | -1.2% | -27 | -6%
CN1CCN(NC(=O)Nc2ccc(F)cc2)CC1 | -24% | 4% | -0.5 | 1 | 2.8% | -5 | 9%

(listing goes on)
Molecule | gsp agonist | gsp antagonist | Menin MLL FP FL | TRPV1 potentiator | ClpP mod | TRPML1 blocker | Sfp inh
COc1ccc(-c2nc(CSCC(=O)NC3CCN(Cc4ccccc4)CC3)c(C)o2)cc1OC | -12% | -6% | -3.4 | 12 | 4.1% | 4 | 13%
O=C(COC(=O)c1ccccc1Br)NCCC1=CCCCC1 | -12%[15.4 µM] | -3% | -1.5 | -23 | . | 28 | 7%
O=C(Nc1ccccc1F)c1ccc(CNS(=O)(=O)c2cccc(C(F)(F)F)c2)cc1 | -14% | 6% | 5.2 | 3 | -0.4% | 32 | 18%
CC(C)CC(=O)N1CCC(N2CCN(c3ccccc3)CC2)CC1 | 1% | 11% | -1.2 | -3 | 4.5% | -10 | -2%
CN1C(=O)c2cccc3c(S(=O)(=O)Nc4ccc(O)c(C(=O)O)c4)ccc1c23 | 6%[15.4 µM] | . | -0.3 | 3 | . | 4 | 4%
COC(=O)Cc1c(O)ccn(CCc2c[nH]c3ccccc23)c1=O | -41%[inhibitor] | 4% | 0.9 | 7 | 0.4% | 12 | 4%
CC(=O)NC[C@H]1O[C@@H](n2ccc(N)nc2=O)[C@H](O)[C@@H]1O | -56%[inhibitor] | . | . | . | -0.6% | 26 | .
CCCc1nn(C)c2c1C(c1ccncc1)C(C#N)=C(N)O2 (configuration not stated) | -3% | 3% | 2.8 | 0 | -1.5% | -4 | 8%
O=C(Nc1ccc(CN2CCCCC2)cc1)c1ccc(Br)o1 | 15% | -2% | -3.1 | 9 | 0.2% | 2 | ?
CC(=O)c1nc(N2C(=O)CC(Cc3ccc(C)cc3)C2=O)sc1C (configuration not stated) | ? | 10% | 4.2 | -23 | 1.7% | 4 | 13%
O=C(c1ccccc1)c1c[nH]c2cc3c(cc2c1=O)OCO3 | . | . | 0.2 | 8 | . | . | 15%
COc1cccc(CN(C)C(=O)c2cccc(S(=O)(=O)N3CCN(c4ccc(F)cc4)CC3)c2)c1OC | -14%[15.4 µM] | -28% | . | 0 | . | 21 | .
COC(=O)C1=C[C@@H](C(=O)OC)[C@@H]2C3=C(C(=O)[C@@]2(C)NC(=O)c2ccccc2)[C@H](c2ccccc2)[C@@H]2C(=O)NC(=O)[C@@H]2[C@@H]3C1 | -30%[inhibitor] | 3% | -0.5 | . | 1.3% | -10&-15 | 1%
